From PubChem
StopGo RLuc = Primary qHTS Assay for Foot and Mouth Disease Virus Antivirals against NCGC Sytravon and CBC Compound Libraries: Renilla Luciferase Signal; HEK cells with a luciferase reporter of 2A StopGo recoding; Potency, µM (series often up to 57.5 µM), for the others: at the highest dose signal change, negative = less light; actives 0.32% (n = 120,000); AID 1745857, 2022; active means well fitted falling curve with a large enough effect; inconclusive means small, poorly fitted or top-dose-only effect; inactive means no such curve, though single readings can be large or run the other way; further: nearly all actives have a fitted effect of over 55% in size; overnight with compound
StopGo FLuc = Primary qHTS Assay for Foot and Mouth Disease Virus Antivirals against NCGC Sytravon and CBC Compound Libraries: Firefly Luciferase Signal | Potency, µM (highest dose often 57.5 µM), without a hit: at the highest dose signal change, negative = less light | AID 1745856, 2022 | actives 0.23% (n = 120,000) | HEK cells with a luciferase reporter of 2A StopGo recoding; active = well fitted falling curve with a large enough effect; inconclusive = small, poorly fitted or top-dose-only effect; inactive = no such curve, though single readings can be large or run the other way; further: nearly all actives have a fitted effect of over 60% in size; overnight with compound
Starred values were filed as active, the others as inactive; ? = inconclusive; & = joins results of further samples; [ ] = remark or other dose. On the % scale 0 is the no-effect control and ±100 the full control effect; potency means the concentration at half of the fitted maximal effect. These rows are one share of the data. The share of hits here may be higher or lower than overall.

Molecule | StopGo RLuc | StopGo FLuc
Cc1ccc(CN2C(=O)c3ccccc3Sc3ccc(C(=O)OCc4ccco4)cc32)cc1 | 10% | 13%
Cc1noc(/C=C/c2ccccc2F)c1S(=O)(=O)N1CCC(C(=O)NCC(C)c2ccccc2)CC1 (stereo not given) | 0% | -25%
O=C(CN1C(=O)COc2ccc(S(=O)(=O)NC3CCCC3)cc21)NCc1ccccc1Cl | 43%[activator] | 33%
Cc1csc2nc(-c3cccc(NC(=O)c4ccccc4Cl)c3)cn12 | 19% | 61%[activator]
Cc1cc(/C=C/c2nc3ccccc3s2)cc(C)c1O | 82%[activator] | 0%
Cc1nc(NC(C)C)sc1C(=O)NCc1ccncc1 | -6% | 64%[activator]
Cc1[nH]c2ccccc2c1C(=O)CSc1nnnn1C1CCCC1 | 17% | 19%
Cn1nc(C(=O)OCCOc2ccccc2Cl)c2ccccc2c1=O | -2% | 13%
Cc1ccc(C)c2c(N)c3c(nc12)CCCC3 | 0% | 0%
FC(F)(F)c1cccc(N2CCN(c3ncnc4c3nc3n4CCCC3)CC2)c1 | -4% | ?
Cc1ccc(NC(=O)COC(=O)c2cc3ccccc3[nH]2)cc1C | -16% | 2%
O=S(=O)(NCc1cccc(Br)c1)c1ccc(-c2cc(C(F)(F)F)on2)s1 | -9% | -12%
O=C1c2ccccc2C(Nc2cc(Cl)cc(Cl)c2)N1c1cccnc1 (stereo not given) | 12% | -7%
CCCNC(=O)CCC(=O)N1Cc2cccc(OC)c2Oc2ncccc21 | -5% | -12%
CCCn1nc(C(=O)OC(C)C(=O)Nc2cc(C)on2)c2ccccc2c1=O (stereo not given) | -1% | -3%
Cc1cccc(NC(=O)c2ccc(Cn3nc(N4CCN(c5ccccc5)CC4)ccc3=O)o2)c1C | ? | ?
CCC1CSC(Nc2ccccc2C)=N1 (stereo not given) | 6% | 136%[activator]
CCc1noc(C)c1C(=O)Nc1ccc(C)c(C)c1 | -9% | 18%
COCc1ccccc1CNC(=O)NC(c1ccccc1)c1ccccc1 | 5% | -4%
Cc1ccccc1NC(=O)CC1C(=O)Nc2nc(-c3ccccc3)nn21 (stereo not given) | 5% | 21%
Cc1ccccc1-c1noc(CSc2nnc(Cc3ccccc3)n2-c2ccc(F)cc2)n1 | 60%[activator] | -17%
COc1cc(-c2nnc(SCCOc3ccc(C)c(Cl)c3)o2)cc(OC)c1OC | -3% | 24%
Cc1ccc(CNC(=O)c2cn(C)c3ccc(S(=O)(=O)N(C)C4CCCCC4)cc3c2=O)cc1 | -8% | 25%
NC(=O)C(Oc1cc(Cl)ccc1Cl)c1ccc(F)cc1 (stereo not given) | 14% | 12%
Cc1ccc(NC(=O)Cn2cnc3c2c(=O)n(C)c(=O)n3C)c(Cl)c1 | -2% | 8%
Cc1sc2nc(SCc3ccc(F)cc3)n(CCCN3CCOCC3)c(=O)c2c1C | 2% | 1%
S=C(NC1CCCCC1)NC1CCSc2ccccc21 (stereo not given) | 0%[1.06 µM] | 18%
CCc1ccc2occ(CC(=O)N(Cc3ccc(N(C)C)cc3)C3CCS(=O)(=O)C3)c2c1 (stereo not given) | -13% | -28%
Cc1cccc(NS(=O)(=O)c2ccc(Cl)c(C(=O)Nc3ccc4oc(C)nc4c3)c2)c1 | 169%[activator] | 1%
Cc1ccc(NCc2cccn2-c2nnc(N3CCC(C(=O)NCCc4ccc(Cl)cc4)CC3)s2)cc1 | 15% | -17%
CCOc1ccc(S(=O)(=O)N(C)CC(=O)N2CCOCC2)cc1 | -2% | -1%
CN(Cc1ccc(Br)cc1)C(=O)c1ccc(NS(C)(=O)=O)cc1 | 0% | 4%
O=C(O)CCc1ccc(F)c(F)c1 | 0% | 0%
CC1CCC(NC(=O)CCc2cn(Cc3ccccc3Cl)c3ccccc23)CC1 (stereo not given) | 34%&-3%[activator] | 46%&15%[activator]
CCCOc1ccccc1C(=O)Nc1ccc(-c2nc3ccc(C)cc3s2)cc1 | 4% | 313%[activator]
CC(NC(=O)c1ccc(C(C)(C)C)cc1)C(=O)NCc1ccc(C(=O)O)cc1 (stereo not given) | 22% | 20%
Cc1ccc(NC(=O)Cn2cnc3nc(N4CCOCC4)sc3c2=O)cc1C | -6% | -7%
C[N+]1(C)CCNCC1 | 5% | -13%
Cc1cn2c(=O)cc(COc3cc(C)c(Cl)c(C)c3)nc2s1 | 0% | -13%
COc1ccc(OC)c(NC(=O)Cc2c(C)c3ccc(O)c(C)c3oc2=O)c1 | 12% | 16%

Not a retest: entries from further up.
Molecule | StopGo RLuc | StopGo FLuc
Cc1ccccc1-c1noc(CSc2nnc(Cc3ccccc3)n2-c2ccc(F)cc2)n1 | 60%[activator] | -17%
COc1cc(-c2nnc(SCCOc3ccc(C)c(Cl)c3)o2)cc(OC)c1OC | -3% | 24%
Cc1ccc(CNC(=O)c2cn(C)c3ccc(S(=O)(=O)N(C)C4CCCCC4)cc3c2=O)cc1 | -8% | 25%
NC(=O)C(Oc1cc(Cl)ccc1Cl)c1ccc(F)cc1 (stereo not given) | 14% | 12%
Cc1ccc(NC(=O)Cn2cnc3c2c(=O)n(C)c(=O)n3C)c(Cl)c1 | -2% | 8%

Arranged by heavy-atom count (highest first): part of the list above.
Molecule | StopGo RLuc | StopGo FLuc
Cc1noc(/C=C/c2ccccc2F)c1S(=O)(=O)N1CCC(C(=O)NCC(C)c2ccccc2)CC1 (stereo not given) | 0% | -25%
CCCNC(=O)CCC(=O)N1Cc2cccc(OC)c2Oc2ncccc21 | -5% | -12%
Cc1cn2c(=O)cc(COc3cc(C)c(Cl)c(C)c3)nc2s1 | 0% | -13%

More records.
Molecule | StopGo RLuc | StopGo FLuc
NC1=[N+](Cc2ccccc2)C(Cc2ccccc2)C2C(=C3CCCCC3n3c(=O)n(-c4ccccc4)c(=O)n32)N1 (stereo not given) | -9% | -13%
CC(=O)Nc1ccc2c(ccn2CCN2CCOCC2)c1 | 0% | 11%
CCOc1ccccc1C(=O)N(Cc1ccccc1F)C1CCS(=O)(=O)C1 (stereo not given) | -13% | 14%
Cc1ccc(C)c(Cn2nc(-c3ccc(C)c(S(=O)(=O)N4CCCC4)c3)ccc2=O)c1 | ? | ?
Cc1nc(Nc2nc3ccccc3o2)ncc1C(=O)Nc1ccccc1C(F)(F)F | -3% | 111%[activator]
CC1CCCCN1CC(=O)N1CCCc2c1c(=O)oc1ccc(OCc3ccccc3)cc21 (stereo not given) | 10% | -4%
CCOc1ccc(-c2nc3ccccc3c(C(=O)O)c2C)cc1 | -6% | 55%[activator]
O=S1(=O)CCN2C(c3cccc(Br)c3)=CSC2=N1 | 7% | 62%[activator]
CC(=O)Nc1cccc(NC(=S)NC(NC(=O)c2ccc(C)cc2)C(Cl)(Cl)Cl)c1 (stereo not given) | 53%[activator] | -6%
CCOC(=O)C1C(=O)C=C(c2ccc(C)cc2)CC1c1ccc(C)cc1 (stereo not given) | 8% | 0%
Cc1ccc(CNC(=O)CN2c3ccc(C(C)C)cc3-c3ccccc3S2(=O)=O)cc1 | 50%[activator] | 21%
Cc1ccccc1Cc1c(C)nc2nc(SCC(=O)NCCc3ccc(Cl)cc3)nn2c1C | -2% | -14%
Cn1c(=O)c2[nH]c(CN3CCc4ccccc4C3)nc2n(C)c1=O | 275%[activator] | 173%[activator]
CN1CCN(c2cnn(Cc3ccc(F)cc3)c(=O)c2Cl)CC1 | -22% | -13%
CN(CCCNc1cc(C(=O)N2CCOCC2)c2ccccc2n1)C1CCCCC1 | -18% | -16%
Cc1nc2ccc(S(=O)(=O)CCC(=O)Nc3ccc(C(C)C)cc3)cc2s1 | -4% | -22%
C#CCn1c(/C=C/c2ccc(Cl)cc2)nc2ccccc21 | 18% | 190%[activator]
CCCCC(=O)Nc1sc2c(c1C#N)CCC(C(C)(C)C)C2 (stereo not given) | -1% | 0%
C=CCSc1nc2c(c(=O)[nH]c(=O)n2C)n1CCCC | -1% | 0%
COC(=O)C(CNC(=O)c1ccc(F)cc1)Cc1ccc(F)cc1 (stereo not given) | 8% | 82%[activator]
CCN(CC)CCCNc1cc(-c2ccccc2)nc(C)n1 | -9% | -15%
O=C(CSc1nnc(C2CCCCC2)n1-n1cccc1)Nc1ccccc1 | 0% | -7%
CCNc1c(NC(=O)Nc2cccc(OC)c2)c(=O)oc2ccccc12 | 3% | -1%
COC(=O)C(N)C12CC3CC(CC(C3)C1)C2 (stereo not given) | 2% | 8%
CC(C)CNC(=O)c1cc2cc(N(C)S(=O)(=O)c3ccc(Cl)cc3)ccc2s1 | 7% | -1%
CCN(CC)CCOC(=O)C(Cc1cccc2ccccc12)CC1CCCO1 (stereo not given) | -16% | -22%
O=C(Cn1c(=O)n(Cc2ccc3c(c2)OCO3)c(=O)c2oc3ccccc3c21)Nc1ccccc1F | 280%[activator] | 267%[activator]
Cc1ccc2nc(C)c(C(=O)N(C)C(C)c3ccccc3)cc2c1 (stereo not given) | 77%[activator] | 20%
Cc1ccc(C)c(CN2CCC(CNS(=O)(=O)c3csc(C(N)=O)c3)CC2)c1 | 2% | 10%
CNC(=O)CCS(=O)(=O)Cc1coc(-c2cccc(F)c2)n1 | -11% | -3%
Cc1ccc(CN2CCCN(c3cccc(C(=O)N4CCCCCC4)c3)C2=O)cc1 | -1% | -2%
C=CCNc1nc(C(=O)OCC(=O)N(c2ccccc2)C(C)C)cs1 | 3% | -5%
O=C(CSc1nc(-c2ccccc2)cc(=O)[nH]1)Nc1ccccc1F | 2% | 25%
Cc1ccc(Cl)cc1NC(=O)CN1C=NS(=O)(=O)c2ccccc21 | 13% | -16%
CCn1c(=O)c(-c2noc(C(=O)N3CCC(c4ccccc4)C3)n2)nn(-c2ccc(F)cc2)c1=O (stereo not given) | -7% | -9%
Cc1ccc(OCC(=O)N2CCN(c3ncccn3)CC2)cc1 | 4% | 33%[activator]
CCOC(=O)c1ccccc1NS(=O)(=O)c1c(-c2ccc(C)cc2)csc1C(=O)OC | 88%[activator] | -10%
O=C(Cn1nnnc1-c1ccccc1F)Nc1ccc(F)c(F)c1 | 18% | -13%
CCOc1ccc(CCNC(=O)CCSCc2ccc(Cl)cc2)cc1OCC | -16% | -23%
CC1=C(C)CC(C(=O)NC2CCN(Cc3ccccc3)CC2)C(C(=O)O)C1 (stereo not given) | 3% | -15%
CN1CCC(N(C)CCN(C)C(=O)NCc2ccc(F)cc2)CC1 | -4% | -3%
COc1ccc(C)cc1CN1CCN(C(=O)Nc2cccc(C)c2)CC1 | -9% | 0%
CCOC(=O)C1CCN(C(=O)Cn2c(=O)cc(C)c3c(C)nn(C)c32)CC1 | ? | ?
Cc1ccc(Cn2cc(/C=C(/C#N)C(=O)Nc3cccc(Cl)c3)c3ccccc32)cc1 | -14% | -8%
CCC1CCCCN1CCCNC(=O)CN1C(=O)c2cccnc2Oc2ccc(C)cc21 (stereo not given) | -13% | -13%
CCCc1nc2ccccc2n1CC(O)c1cccc(Br)c1 (stereo not given) | -9% | -5%
CCN(C(=O)c1cc2c(Cl)nc3ccccc3c2s1)c1cccc(Cl)c1 | -1% | -2%
COC(=O)C1=C(C)NC2=C(C(=O)CCC2)C1c1ccsc1 (stereo not given) | -5% | -4%
O=C(NCCO)c1cc(-c2ccc(Cl)cc2)nc2ccccc12 | 6% | 18%
CC(C)(C)c1ccc(-c2nnc(SCc3nc4ccccc4o3)o2)cc1 | -10% | 9%
CC(C)Oc1nnc(SCC(=O)Nc2ccccc2Cl)s1 | -2% | 0%
CCOC(=O)c1cc(-c2ccccn2)nc2c1c(=O)[nH]c(=O)n2CCOC | -8% | -4%
Cc1cc(-c2ccc(C)c(S(=O)(=O)Nc3c(C)cccc3C)c2)on1 | 0% | 4%
Cc1ccc(NC(=O)CSC2=Nc3ccccc3C3CC=NN23)c(C)c1 (stereo not given) | -10% | -10%
CN(CCSc1ccc(Cl)cc1)Cc1nc2ccccc2c(=O)[nH]1 | -5% | -19%
COc1ccc(N2CCN(c3oc(-c4ccccc4C)nc3S(=O)(=O)c3ccccc3)CC2)cc1 | -4% | -6%
CCOP(=O)(OCC)c1nc(-c2ccco2)oc1NCc1ccccc1 | 155%[activator] | 9%
COc1cc(CNc2ccc3[nH]c(=O)[nH]c3c2)cc(Cl)c1OCc1ccccc1F | -13% | 15%
Cc1[nH]c2ccccc2c1C(c1ccc(O)cc1)c1c(C)[nH]c2ccccc12 | 17% | 28%
COc1ccc(-n2c3c(c(=O)[nH]c2=O)C(NC(C)=O)(C(F)(F)F)C(=O)N3)cc1 (stereo not given) | -10% | -13%

Additional structures follow.
Molecule | StopGo RLuc | StopGo FLuc
O=C(Cn1c(=O)nc(-c2ccccc2)c2ccccc21)Nc1cccc(C(F)(F)F)c1 | -12% | 11%
Cc1ccc(NC(=O)Nc2nnc(N3CCCC3)s2)cc1 | -1% | 26%
COc1cccc(-c2nc(CSCC(=O)N3CCc4ccccc43)c(C)o2)c1 | -4% | -8%
COc1ccc(NS(=O)(=O)c2cccc(C(=O)N3CCc4sccc4C3)c2)cc1 | 31%[activator] | ?
Cc1nc(/C=C/C(=O)NC(C)C23CC4CC(CC(C4)C2)C3)cs1 (stereo not given) | 8% | -1%
CCOCCCNS(=O)(=O)c1cccc2cc(C)cnc12 | 81%[activator] | 4%
CCN(C(=O)c1cccn(Cc2ccccc2C)c1=O)c1ccccc1 | -5% | -22%
O=C(N/N=C/c1cc(Cl)ccc1OCCCOc1ccccc1Cl)c1ccccc1 | 5% | 0%
CCOC(=O)c1scc(-c2ccc(C)cc2)c1S(=O)(=O)N1CCN(c2ccccc2F)CC1 | 102%[activator] | 2%
CCCCCCCCSc1ccc(C(C)=O)cc1 | -17%[1.06 µM] | 0%
